Screening data deposited in PubChem BioAssay by National Center for Advancing Translational Sciences (NCATS).
HSD17B inhib: inhibitors of human HSD17B10 dehydrogenase; Q99714; recombinant HSD17B10, NADH fluorescence kinetic; many of its hits are not listed in these tables; Potency, µM (titrated, usually from 57.1 µM), inactives show at the highest dose activity change, negative = inhibition, usual class: inhibitors; 7.6% of 75,000 active; AID 893; active = well fitted inhibition curve with a large enough effect;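 note: the protocol describes HADH2 (HSD17B10) and not the HSD17B4 of the title; nearly all actives have a fitted effect of over 70% in size; most hits overshoot -100% by far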
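Activity followed as NADH fluorescence increase (ex 360, em 450 nm) every 30 seconds for 4 min, using final 90 uM beta-hydroxybutyryl CoA and 1 mM NAD+. Recombinant His-tagged enzyme, 20 nM, pH 9.0 Tris buffer, 15 min compound preincubation.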
* = called active by the depositor; [ ] = remark or other dose. % is set by controls: 0 for no effect and ±100 for the full control effect; potency is the fitted concentration of half-maximal effect. A portion of the library; rates above refer to the full screens.

SMILES	HSD17B inhib
CC[C@H]1C(=O)OC[C@H]1Cc1cncn1C	2%[11.4 µM]
